High-throughput results as filed in PubChem.
MenB inh: Mtb MenB enzyme inhibition; inhibition, %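 (about 12 µg/mL by stock and volumes)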; hit rate 0.43% among 100,000; AID 540299; MenB enzyme assay, absorbance read-out; some hits fall short of the stated cut; P9WNP5;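 active = mean of two replicates above 30%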;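 note: 0% = no compound and 100% = wells with inactive enzyme; the first replicate is given; strong numbers were not always called active; inactives centre near -10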
PV pol inh: inhibitors of poliovirus RNA polymerase binding and polymerization | P03300 | poliovirus polymerase elongation, fluorescence polarization; stronger effect = lower value | % elongation, % (compound at 16.7 µg/mL) | hit rate 0.66% among 150,000 | AID 588519; in the data active = % elongation below about 90%; note: some results filed as inactive read as strong as hits
Target sequence (P03300 1749-2209 limits assumed): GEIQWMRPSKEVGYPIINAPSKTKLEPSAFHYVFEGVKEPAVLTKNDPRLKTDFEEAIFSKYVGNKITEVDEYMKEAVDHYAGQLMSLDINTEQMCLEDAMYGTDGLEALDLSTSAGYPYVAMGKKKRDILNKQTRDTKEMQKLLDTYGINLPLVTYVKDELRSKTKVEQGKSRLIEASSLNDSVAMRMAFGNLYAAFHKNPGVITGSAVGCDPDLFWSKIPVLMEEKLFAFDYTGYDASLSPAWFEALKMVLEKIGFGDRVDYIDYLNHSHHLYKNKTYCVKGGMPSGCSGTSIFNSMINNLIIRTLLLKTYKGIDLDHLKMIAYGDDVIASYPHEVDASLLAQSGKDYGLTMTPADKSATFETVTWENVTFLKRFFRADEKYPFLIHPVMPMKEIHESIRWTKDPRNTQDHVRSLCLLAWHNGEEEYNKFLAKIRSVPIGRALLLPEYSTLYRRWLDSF
Mtb MbtI inh: MbtI salicylate synthase inhibition. inhibition, %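 (about 17 µg/mL by stock and volumes)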. purified MbtI enzyme, fluorescence intensity read-out. AID 493033. hit rate 0.89% among 100,000;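 active = above 50% in both replicates, above 80% if mildly self-fluorescent; inactive = the rest, strongly fluorescent compounds included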;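 note: 0% = mean of negative and 100% = mean of positive controls; one replicate is shown; some compounds called inactive have numbers as strong as hits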
Target sequence (P9WFX0 whole entry, looked up): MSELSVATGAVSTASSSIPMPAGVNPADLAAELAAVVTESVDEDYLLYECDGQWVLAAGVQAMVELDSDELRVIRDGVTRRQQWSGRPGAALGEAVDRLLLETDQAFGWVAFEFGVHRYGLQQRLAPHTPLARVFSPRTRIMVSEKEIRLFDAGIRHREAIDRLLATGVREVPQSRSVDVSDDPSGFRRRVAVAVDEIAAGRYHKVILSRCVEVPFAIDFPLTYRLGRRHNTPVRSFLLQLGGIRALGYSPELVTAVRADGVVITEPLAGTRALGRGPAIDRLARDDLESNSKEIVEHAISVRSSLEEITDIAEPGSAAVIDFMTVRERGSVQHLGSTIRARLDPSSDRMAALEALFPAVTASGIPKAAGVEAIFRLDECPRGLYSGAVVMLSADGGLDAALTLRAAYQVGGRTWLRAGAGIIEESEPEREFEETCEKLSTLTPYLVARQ
PV pol inh intensity: also measured in PV pol inh; calls as there; % elongation; measured here: total intensity read-out; formula for this scale not given here;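 total fluorescence in place of polarization; lower means less elongation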
* = called active by the depositor; . = not tested or not shown. Not a hit list, and some 1.8% of all compounds hit somewhere here.

structure	MenB inh	PV pol inh	PV pol inh intensity	Mtb MbtI inh
CC12CN3CC(C)(C1O)C(O)C(C)(C3)C2O (stereo not drawn)	-11	86*	85*	-6
Cc1ccc(N=Cc2c(Sc3ccc(Cl)cc3)nc3sccn23)cc1	8	103	105	-11
O=C(c1ccc(F)cc1)c1ccc(N2CCCCC2)cc1	-100	99	102	2
O=C(CSc1nc(=O)n2ccccc2n1)NC1CCCC1	4	98	101	0
O=C(COC(=O)c1ccco1)NCC1CCCO1 (stereo not drawn)	35*	99	102	-3
Cc1ccc(N(C)C(=O)n2cnc3ccccc32)cc1	-2	99	100	-10
CCn1c(=Nc2ccc(C)cc2)ccc2cc(C)ccc21	-1	100	103	-4
FC(F)(F)c1ccnc(=S)[nH]1	-4	101	106	49

Carrying on.
structure	MenB inh	PV pol inh	PV pol inh intensity	Mtb MbtI inh
COc1ccccc1NC(=O)Nc1ccc(N2CCOCC2)cc1	-3	98	102	-50
O=c1[nH][nH]c(=S)n1-c1ccc2c(c1)OCCO2	9	102	96	.
O=C(O)c1ccc(N=Cc2ccc(-c3ccc(Cl)cc3)o2)cc1	-6	111	112	.
C=CCC(CC=C)(NC(=O)c1ccccc1)c1ccccc1	-16	109	113	.
CCc1ccc(S(=O)(=O)N2CCN(S(=O)(=O)c3ccc(CC)cc3)C(C)C2)cc1 (stereo not drawn)	-4	102	103	-3
Cc1nnc(N(C)C(=O)c2ccccn2)s1	-22	99	99	-14
C#CCn1c(=NC(=O)C(C)C)sc2cc(Br)ccc21	-4	99	100	12
Cn1c(=O)cc(SCC(=O)Nc2ccccn2)c2ccccc21	-27	102	104	-2

Looked up above:
PV pol inh with O=C(O)c1ccc(N=Cc2ccc(-c3ccc(Cl)cc3)o2)cc1 → 111
PV pol inh intensity with COc1ccccc1NC(=O)Nc1ccc(N2CCOCC2)cc1 → 102
MenB inh with O=C(COC(=O)c1ccco1)NCC1CCCO1 (stereo not drawn) → 35*

Later entries:
structure	MenB inh	PV pol inh	PV pol inh intensity	Mtb MbtI inh
Cn1c(C(C#N)C(=O)c2n[nH]c(=O)c3ccccc23)nc2ccccc21 (stereo not drawn)	-2	104	112	19
Cn1c(SCC(=O)NC2C3CC4CC(C3)CC2C4)nnc1-c1cccnc1 (stereo not drawn)	-36	102	98	-5
COc1ccc(C2CC(=O)CC(=O)C2)cc1	-84	101	102	6
CC1=C/C(=N/NC(=O)c2c[nH]c3ccccc23)CC(C)(C)C1	-15	103	98	-14
O=C(Cc1ccccc1)NCc1ccc2c(c1)OCO2	-29	94	95	14
CCOC(=O)Cc1csc(NC(=O)c2cccs2)n1	7	101	101	10
CC(=C1C(=O)c2ccccc2C1=O)N1CCC(C(N)=O)CC1	-38	100	95	14
CCc1ccc(NS(=O)(=O)c2ccc3[nH]cc(C(=O)N4CCCC4)c(=O)c3c2)cc1	-1	98	102	-30

Further entries follow:
structure	MenB inh	PV pol inh	PV pol inh intensity	Mtb MbtI inh
COc1ccc(CCN2CN=C(NS(=O)(=O)c3ccc(C)cc3)NC2)cc1OC	-21	101	103	-8
O=C(O)[C@H](Cc1ccc(O)cc1)N1C(=O)c2ccccc2C1=O	6	100	102	13
Cc1cc(OCC(=O)N(C2CC2)C2CCS(=O)(=O)C2)ccc1Cl (stereo not drawn)	-12	106	105	-3
N#C/C(=N\Nc1ccc(F)cc1)C(=O)NCC1CCCO1 (stereo not drawn)	-30	103	98	-11
OC(CON=C1c2ccccc2-c2ccccc21)Cn1nnc2ccccc21 (stereo not drawn)	-29	103	105	6
O=S(=O)(NCc1ccc(-c2cccs2)cc1)c1ccc(N2CCOCC2)nc1	-16	105	111	-30
CS(=O)(=O)N1CCc2cc(S(=O)(=O)Nc3ccc4c(c3)COC4=O)ccc21	-4	104	106	.
CNC(=O)CSc1nnc2c(C)cc3ccc(OC)cc3n12	-18	101	101	-10

(more compounds)
structure	MenB inh	PV pol inh	PV pol inh intensity	Mtb MbtI inh
Cc1cc(C)c(C(=O)COC(=O)c2ccc(O)cc2)c(C)c1	-9	100	96	-12
COc1ccc(NC(=O)C(C)n2cccc2)cc1 (stereo not drawn)	-5	102	104	13
O=C(Nc1ccc2c(c1)C(=O)NC2=O)c1ccccc1	-25	103	103	103
CSc1cccc(NC(=O)Cn2cnc(S(=O)(=O)N3CCc4ccccc43)c2)c1	-25	102	101	0
O=C(NCCNc1cccc2ccccc12)c1ccco1	11	102	106	-57
Cc1ccc(C)c2nc(SCC(=O)NC3CCCCC3)c(C#N)cc12	12	103	104	-7
CCCNc1nc(Cl)nc(NCCC)n1	7	105	101	.
CC1Cc2ccccc2N1Cc1nc2ccccc2c(=O)[nH]1 (stereo not drawn)	-28	102	109	14

The results go on.
structure	MenB inh	PV pol inh	PV pol inh intensity	Mtb MbtI inh
Cc1cc(C#N)c(C)n1-c1ccc(Cl)cc1C(=O)c1ccccc1Cl	-24	103	111	1
O=C(Nc1noc2c1COc1ccccc1-2)N1CCN(c2ccccc2F)CC1	-25	106	98	-6
Cn1c(C(=O)O)nc2ccccc21	-38	103	101	5
Cc1ccc2nc(COC(=O)CNC(=O)c3ccc(Br)o3)cc(=O)n2c1	5	97	92	101
O=C(NC1CCCCCCC1)C1CCCC1	-21	103	103	-5
CCOc1ccc(NC(=O)c2ccccc2NC(=O)CN2CCOCC2)cc1	11	103	98	-14
CCN1C(=O)/C(=C/c2ccc(C(C)C)cc2)NC1=S	-150	98	102	3
Nc1ccc(-c2nc3c(Cl)c(N)ccc3[nH]2)cc1Cl	7	100	95	.

Following part
structure	MenB inh	PV pol inh	PV pol inh intensity	Mtb MbtI inh
Cn1cnnc1SCc1ccc(C(=O)N/N=C2\CCSC2)cc1	7	100	105	1
CSCCn1c(-c2ccccc2)cc(C(=O)N2CCOCC2)c1C	-18	102	96	-3
O=c1[nH]c2ccc(S(=O)(=O)N3CCN(c4cccc(C(F)(F)F)c4)CC3)cc2[nH]1	9	97	97	10
CCCN1C(=O)c2cc(C(=O)O)ccc2C1O (stereo not drawn)	12	102	103	16
C=CCN1C(=O)CN2c3ccccc3C(C)(C)C12C (stereo not drawn)	-12	107	112	-7
CC(CN1CCCCC1)OC(=O)C1c2ccccc2Oc2ccccc21 (stereo not drawn)	-9	103	100	-1
Nc1ccc2c(c1)OCCOCCOCCO2	-33	100	107	10
Cc1ccc(C(=O)N(CC#N)CC#N)cc1	-4	102	99	-12

(further entries)
structure	MenB inh	PV pol inh	PV pol inh intensity	Mtb MbtI inh
COC(CNC(=O)c1csc2c1CCCCC2)OC	14	102	100	-2
CCC(=O)Nc1ccc(-c2nc3ccc(NC(=O)CC)cc3[nH]2)cc1	-47	104	100	98
O=C(NC(=O)c1ccccc1)Oc1ccc(F)cc1	-17	101	103	-3
CCOC(=O)C1=C(C)Nc2ccccc2N=C1NC(=O)Cn1c(=O)oc2ccccc21	8	106	98	12
O=c1/c(=C\c2ccncc2)sc2nc3ccccc3n12	-34	63*	78*	.
O=C(CCNC(=O)c1ccco1)Nc1ccccc1	-6	100	106	8
COc1ccc(-c2nnco2)cc1	.	100	100	7
Cc1ccc2c(Cl)cc(Cl)c(OCC(=O)N3CCCC3)c2n1	.	104	103	35

Going on with the list:
structure	MenB inh	PV pol inh	PV pol inh intensity	Mtb MbtI inh
CN1CCN(c2ccc(NC(=O)COc3cccc4ccccc34)cc2)CC1	-5	105	109	.
COc1ccccc1N(C)C(=O)CCS(=O)(=O)c1ccc2c(c1)n(C)c(=O)c(=O)n2C	6	101	102	-2
CCn1cc(C(=O)NCC(OC)OC)c(=O)c2cc(S(=O)(=O)N3CC(C)CC(C)C3)ccc21 (stereo not drawn)	8	101	97	0
CC(C)CN1C(=O)C(=Nc2cccnc2)c2ccccc21	.	100	95	21
COc1ccc(-c2noc(CN(C(=O)NC3CCCCC3)C(C)C)n2)cc1OC	-12	105	110	-2
CCN1C(=O)CSC1=Nc1ccccc1Cl	-15	100	102	-10
COC(=O)c1ccc(/C=N/OCC(=O)Nc2ccc3c(c2)OCCO3)cc1	-10	97	104	0
CC(C)CCNc1cc(-c2ccccc2)nc2nncn12	0	100	100	-2

New compounds follow.
structure	MenB inh	PV pol inh	PV pol inh intensity	Mtb MbtI inh
N=c1c[n+](CC23CC4CC(CC(C4)C2)C3)[n-]o1	8	101	105	6
CN(CC(=O)NC1CCCCC1)c1nnc(N2CCCC2=O)s1	8	103	106	-1
c1csc(-c2csc3nc(CN4CCOCC4)nc(Sc4ncn[nH]4)c23)c1	-20	101	106	-2
CC(c1ccccc1F)n1cc(C(=O)NCCCn2ccnc2)nn1 (stereo not drawn)	-35	103	104	-4
C=CCN1c2ccccc2NC(=O)C1CC(=O)Nc1ccc(C)cc1 (stereo not drawn)	7	102	99	4
NC(=O)CCN1CCN(S(=O)(=O)/C=C/c2ccccc2)CC1	-8	105	103	3
CC(C)Cn1nnc2c(=O)oc3ccccc3c21	-10	101	102	.
Cc1ccccc1NC1C=CS(=O)(=O)C1 (stereo not drawn)	-8	99	97	5

Next section:
structure	MenB inh	PV pol inh	PV pol inh intensity	Mtb MbtI inh
N/C(CN1CCSCC1)=N\O	3	101	95	-1
COc1ccc(-c2cc3c(=O)n(CC(=O)NC4CCC(C)CC4)ncn3n2)cc1 (stereo not drawn)	-7	101	102	-21
S=C(NCC1CCCO1)NC1CCCCC1 (stereo not drawn)	5	101	114	.
CSc1nnc2n(/N=C/c3cc4c(cc3Br)OCO4)cnn12	0	108	115	.
Cc1cccc(C(=O)NC2=NCC(C)S2)c1 (stereo not drawn)	4	112	106	30
CCC12CCCN3CCC4(c5ccc(OC)c(O)c5N(C(C)=O)C4CC1)C32 (stereo not drawn)	-12	107	108	.
Cc1ccc2onc(CNC(=O)Nc3ccccc3C)c2c1	-35	104	101	-7
CCC(=O)OCC(=O)Nc1cccc2ccccc12	.	101	97	-3

Continued.
structure	MenB inh	PV pol inh	PV pol inh intensity	Mtb MbtI inh
CC(NC(=O)OCc1ccccc1)C(=O)Oc1ccc2c(=O)c(-c3ccc(F)cc3)coc2c1 (stereo not drawn)	-14	107	107	.
Cc1ccc2[nH]c(-c3ccccc3)c(CN3CCCC(C)C3)c(=O)c2c1 (stereo not drawn)	17	101	102	23
CCC(CC)C(=O)NCCc1ccc(OC)c(OC)c1	-7	102	105	-15
O=C1C2=C(Nc3ccccc3SC2c2ccc(O)cc2)c2ccccc21 (stereo not drawn)	-23	98	100	-2
Cc1ccc(C(C(=O)NC2CCCCC2)N(C)C)cc1 (stereo not drawn)	-20	99	102	-7
C[n+]1ccc(/C=C\c2ccco2)c2ccccc21	-150	106	101	13
COc1cc(/C=C/C(=O)O)cc(Cl)c1O	-4	98	101	-30
CC(=O)N1CCN(S(=O)(=O)c2cccc(C(=O)NCCc3ccccn3)c2)CC1	12	100	105	3

Going on with the list.
structure	MenB inh	PV pol inh	PV pol inh intensity	Mtb MbtI inh
O=C(Nc1ccc(F)cc1OC(F)(F)F)N1CCC(O)CC1	-16	102	104	4
COC(=O)c1sc2nc(-c3ccccc3)cc(-c3ccccc3)c2c1N	-3	99	104	.
CCN(CC)Cc1nonc1C	-12	100	102	-7
COc1cc(/C=C/C(=O)O)cc(S(=O)(=O)N2CCc3ccccc32)c1OC	-17	101	101	2
Cc1csc2nc(COC(=O)c3ccc4c(c3)NC(=O)C3CCCN43)cc(=O)n12 (stereo not drawn)	4	99	99	10
Cc1cc(NC(=O)C2CC(c3ccc(Cl)cc3)=NO2)no1 (stereo not drawn)	-12	104	101	-5
COCCNC(=O)N1c2ccccc2Sc2ccccc21	-6	.	.	-8
CC(C)(C)NS(=O)(=O)Cc1ccccc1Cl	-3	101	101	-9

More results.
structure	MenB inh	PV pol inh	PV pol inh intensity	Mtb MbtI inh
Cc1cccc(N2COc3cc(C)c(Cl)c(C)c3C2)c1	0	100	99	-7
NC(=O)COC(=O)c1c2c(nc3ccccc13)CCC2	.	99	104	-8
O=S(=O)(c1ccc(Cc2ccc(S(=O)(=O)N3CCC4(CC3)OCCO4)cc2)cc1)N1CCC2(CC1)OCCO2	-13	102	102	-27
Cc1cc(C(=O)Oc2ccc3c(c2)OCO3)c(C)s1	-3	105	104	-5
Cc1c(C(=O)C(C#N)c2nc3ccccc3[nH]2)oc2c(Cl)cccc12 (stereo not drawn)	-2	106	117	-11
O=C(CN1C(=O)C2CC=CCC2C1=O)NC1=NCCS1 (stereo not drawn)	-16	101	107	-9
CCCCN1C(=O)CC(NNCc2ccccc2)C1=O (stereo not drawn)	-23	103	100	6
Nc1cc(Cl)ccc1Cl	-14	101	109	-19

Continued; it opens with the 4 that closed the last part.
structure	MenB inh	PV pol inh	PV pol inh intensity	Mtb MbtI inh
Cc1c(C(=O)C(C#N)c2nc3ccccc3[nH]2)oc2c(Cl)cccc12 (stereo not drawn)	-2	106	117	-11
O=C(CN1C(=O)C2CC=CCC2C1=O)NC1=NCCS1 (stereo not drawn)	-16	101	107	-9
CCCCN1C(=O)CC(NNCc2ccccc2)C1=O (stereo not drawn)	-23	103	100	6
Nc1cc(Cl)ccc1Cl	-14	101	109	-19
OCCN(Cc1ccccc1)c1ncnc2c1oc1ccccc12	-4	100	102	-62
CCN(CC(=O)Nc1ccc(NC(C)=O)cc1)C(=O)Cc1ccccc1F	13	107	112	-11
CCN(CC)CCc1c(O)n(-c2ccccc2)n(-c2ccccc2)c1=O	-7	102	108	-2
Cc1cc(Br)ccc1NCc1ccc2c(c1)OCO2	-6	103	98	-3
COc1cccc(CNc2ncn[nH]2)c1	-3	103	101	-9
CC(=O)NC1(c2ccccc2)CCNCC1	3	102	101	-21
O=C(CSc1ncnc2sc3c(c12)CCCC3)c1ccccc1	-14	103	91	.
